Screening data deposited in PubChem BioAssay by National Center for Advancing Translational Sciences (NCATS).
Cruzain noTriton: inhibitors of Trypanosoma cruzi cruzain without detergent; AID 1476; actives 2.3% (n = 200,000); P25779; Potency, µM, without a hit: max response, negative = inhibition, most hits filed as inhibitors; purified cruzain, Z-FR-AMC fluorescence, no detergent;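 further: plate controls were enzyme without inhibitor for no effect and buffer without enzyme for full effect; nearly all actives have a fitted effect of over 40% in size; top concentration of the series not given in the record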
Target sequence (P25779 123-467 limits assumed): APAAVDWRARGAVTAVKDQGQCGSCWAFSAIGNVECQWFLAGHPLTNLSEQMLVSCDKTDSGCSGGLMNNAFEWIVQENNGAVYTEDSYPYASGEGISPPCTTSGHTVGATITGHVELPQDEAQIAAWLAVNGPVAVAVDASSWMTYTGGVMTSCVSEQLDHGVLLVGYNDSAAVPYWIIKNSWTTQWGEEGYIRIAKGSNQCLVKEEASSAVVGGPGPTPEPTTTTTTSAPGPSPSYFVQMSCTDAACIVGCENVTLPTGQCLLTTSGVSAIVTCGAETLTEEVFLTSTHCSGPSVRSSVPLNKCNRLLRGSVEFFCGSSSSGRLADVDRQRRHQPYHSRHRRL
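Detergent-free condition (0.00005% Triton X-100) in acetate buffer pH 5.5 with DTT. 1.5 nM enzyme and compound were pre-mixed 15 min, then 2 uM Z-FR-AMC substrate added; reaction progress from fluorescence change between first and third reads (60 s).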
LASV entry inh: blocks Lassa virus binding to or entry into cells | AID 540256 | Potency, µM (highest dose often 37.9 µM), inactives show at the highest dose activity change, negative = inhibition, usual class: inhibitors | actives 1.2% (n = 300,000) | Lassa virus pseudotype entry inhibition, cell reporter; control for the full effect not named in the record; active means well fitted inhibition curve with a large enough effect; inconclusive means small, poorly fitted or top-dose-only effect, or effect the other way; inactive means flat fitted curve, though single readings scatter; tested in HEK293 cells; further: on the % scale 0 is the no-effect control and ±100 the full control effect; nearly all actives have a fitted effect of over 50% in size; luciferase read-out
Marburg entry inh: inhibitors of Marburg virus binding or cell entry; Marburg virus pseudotyped entry inhibition, cell reporter; control for the full effect not named in the record; about a third of the inactives were read at about 46 µM; Potency, µM (doses to about 37.8 µM), inactives show at the highest dose activity change, negative = inhibition, usual class: inhibitors; actives 1.8% (n = 300,000); active = well fitted inhibition curve with a large enough effect; inconclusive = small, poorly fitted or top-dose-only effect, or effect the other way; inactive = flat fitted curve, though single readings scatter; tested in HEK293 cells; about a fifth of its hits are not listed in these tables; further: on the % scale 0 is the no-effect control and ±100 the full control effect; luciferase read-out
NS1 function inh: blocks influenza NS1 protein function | S. cerevisiae slowed by influenza A NS1, growth recovery by OD600 | Potency, µM (series often up to 46.1 µM), for the others: top-dose activity, positive = more growth | actives 0.4% (n = 270,000); active means well fitted rising curve with a large enough effect; inconclusive means small, poorly fitted or top-dose-only effect; inactive means no such curve, though single readings can be large or run the other way; further: nearly all actives have a fitted effect of over 50% in size
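S. cerevisiae expressing influenza A NS1, grown in glucose, washed, then diluted 1:100 into pH 6.0 -URA galactose medium with 23 nl compound. Growth recovery read as OD600; NS1-free strain serves as control.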
SARS PLpro yeast: SARS-CoV PLP inhibition in yeast; S. cerevisiae expressing SARS-CoV PLpro, growth rescue; control for the full effect not named in the record; Potency, µM (series often up to 32.9 µM), for inactives: at the highest dose activity, positive = growth rescue; actives 0.19% (n = 330,000); active means well fitted rising curve with a large enough effect; inconclusive means small, poorly fitted or top-dose-only effect; inactive means no such curve, though single readings can be large or run the other way; further: 0% is about no effect; nearly all actives have a fitted effect of over 55% in size; growth read by luminescence after 48 h
Cruzain Triton: blocks cruzain activity in presence of Triton detergent | AID 1478 | purified cruzain, Z-FR-AMC fluorescence, 0.01% Triton | actives 0.43% (n = 200,000) | Potency, µM, for inactives: max response, negative = inhibition, usual class: inhibitors;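 further: plate controls were neutral wells for no effect and buffer without enzyme for full effect; nearly all actives have a fitted effect of over 40% in size; top concentration of the series not given in the record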
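Enzyme 1.5 nM, Z-FR-AMC 2 uM, NaOAc 100 mM pH 5.5, DTT 5 mM, Triton X-100 0.01%; 15 min RT compound preincubation; kinetic ex360/em450, 60 s delta.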
RE007 growth inh: less growth of the S. pombe RE007 Vpr strain; Potency, µM (doses to about 92.2 µM), for inactives: at the top dose activity change, negative = less growth; AID 651644; S. pombe RE007 Vpr strain, BacTiter-Glo ATP luminescence, 24 h; control for the full effect not named in the record; actives 0.21% (n = 360,000); active = well fitted falling curve with a large enough effect; inconclusive = small, poorly fitted or top-dose-only effect; inactive = no such curve, though single readings can be large or run the other way;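 further: on the % scale 0 is the no-effect control and ±100 the full control effect; nearly all actives have a fitted effect of over 50% in size; the assay follows cell death caused by Vpr and the record does not say whether a fall means rescue or toxicity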
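Fission yeast strain RE007, carrying one chromosomally integrated HIV-1 vpr copy, was seeded at OD 0.01 in PMG+AL medium with 23 nL pinned compound. After 24 h at 30 °C and 99% humidity, viability was read by BacTiter-Glo luminescence.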
StopGo reporter: FMDV 2A StopGo reporter, luciferase signal; human cells with a luciferase reporter of 2A StopGo recoding; control for the full effect not named in the record; Potency, µM (doses to about 57.9 µM), inactives show top-dose signal change, negative = less light; actives 1.2% (n = 410,000); active = well fitted falling curve with a large enough effect; inconclusive = small, poorly fitted or top-dose-only effect; inactive = no such curve, though single readings can be large or run the other way; tested in HEK293T cells; further: on the % scale 0 is the no-effect control and ±100 the full control effect; nearly all actives have a fitted effect of over 45% in size; luciferase light after 4 h
Active calls of the source: *; ? = inconclusive; . = no result given; [ ] = remark or other dose. Unless noted, the call rests on the fitted dose curve; in most records, active means well fitted curve in the direction sought with a large enough effect; inconclusive means small, poorly fitted or top-dose-only effect, or another doubt; inactive means no such curve, though single readings can be large; an effect the other way counts as inactive or inconclusive. Potency means the concentration at half of the fitted maximal effect.

mol,Marburg entry inh,Cruzain noTriton,StopGo reporter,SARS PLpro yeast,LASV entry inh,Cruzain Triton,RE007 growth inh,NS1 function inh
COc1cc(/C=N/NC(=O)CN2CCCCC2)ccc1OCc1ccccc1,?,-10%,39%[activator],-11%,?,-7.7%,-6%,-39%
COc1cc(CNc2ncc(-c3ccc(Cl)cc3)n2C)cc(OC)c1OC,.,.,?,3%,.,.,2%,-2%
O=C(N/C(=C/c1ccccc1F)C(=O)N1CCCCC1)c1ccccc1,7%[46.1 µM],.,23%,0%,4%,.,5%,12%
CCCN(N=Nc1cccc([N+](=O)[O-])c1)c1cccc([N+](=O)[O-])c1,?,-2%,.,-4%,4%,-0.3%,4%,5%
CCCOc1ccc(Cc2nc(N)nc(N)n2)cc1,10%,11%,10%,0%,?,-0.5%,9%,0%
CCn1c(SCC(=O)Nc2ccc(OC)c(OC)c2)nnc1-c1c[nH]c2ccccc12,.,0%,?,8%,.,-1.7%,16%,1%
Nc1ccc(C(=O)Nc2cccc3ncccc23)cc1,.,.,-4%,10%,.,.,15%,16%
CCn1ccc(C(=O)N2CCN(c3ncccn3)CC2)n1,.,.,-10%,-2%,.,.,11%,-4%
Cc1cccc(C(=O)NNC(=O)c2c(-c3ccccc3Cl)noc2C)c1O,-3%[46.1 µM],.,2%,9%,-9%[46.1 µM],.,2%,-2%
O=C(NCC(=O)N(Cc1ccco1)C(C(=O)NC1CCCCC1)c1cccnc1)c1cccs1 (stereo not given),?,14%,-10%,-8%,-2%,7.2%,0%,-3%
ONC=Nc1cccc2nonc12,16%,-6%,5%,5%,2%,-0.8%,-10%,-5%
O=C(c1cccc(C(F)(F)F)c1)C1CCCN(C(=O)C2CCOCC2)C1 (stereo not given),-29%,.,-3%,-1%,-9%,.,3%,8%
COc1ccccc1NS(=O)(=O)c1cc(C(=O)Nc2ccc(S(=O)(=O)Nc3onc(C)c3C)cc2)ccc1C,?,.,20%,.,12%,.,4%,.
CSc1ccc(/C=N/N2CCN(C)CC2)cc1,?,.,8%,-2%,-27%[46.1 µM],.,6%,.
CCCN(CCC)CCCNC(=S)Nc1ccc2nc(N3CCN(C)CC3)cc(C)c2c1,.,.,-3%,-5%,.,.,-2%,-8%
Brc1ccccc1OCCCCn1cnc2ccccc21,?,.,-25%,-2%,?,.,-30%,-8%
CCC(=O)N1c2ccccc2CC1C(=O)NCc1cc(Br)ccc1OC (stereo not given),.,3%,-22%,.,10%[46.1 µM],0.1%,.,.
O=C(O)CSc1ncnc2nc[nH]c12,0%,3%,8%,5%,-3%,3.6%,-19%,1%
CNC(=O)COC(=O)c1cc(NC(=O)c2ccco2)c(OC)c(OC)c1,10%,4%,-17%,12%,24%,-0.7%,1%,1%
O=C(COC(=O)c1nc(Cl)ccc1Cl)Nc1ncc(Cl)cc1Cl,10%,.,-7%,?,-5%[46.1 µM],.,-1%,.
COc1cc(OC)c(NC(=O)C2CCCN2C(=O)OCc2ccccc2)cc1Cl (stereo not given),.,.,16%,9%,.,.,-1%,-13%
COc1ccc(OCCCON2C(=O)c3ccccc3C2=O)cc1,0%[46.1 µM],-6%,12%,1%,2%,5.2%,0%,-5%
O=C(c1cc(COc2ccc3ncccc3c2)on1)N1CCCC1,?,.,-23%,-6%,-10%,.,-10%,-6%
CN1CCN(NC(=O)c2ccc(Cl)c(S(=O)(=O)Nc3ccc(Cl)cc3)c2)CC1,.,.,66%[activator],1%,.,.,4%,0%
COc1ccc(-c2cc(C(=O)N3CCN(c4ccccc4OC)CC3)c3cc(C(C)C)ccc3n2)cc1,.,-8%,?,.,?,1.3%,.,.
O=C(NN1CCOCC1)c1cc(-c2ccccc2)nc2ccccc12,6%,5%,.,-3%,-8%,0.4%,-2%,-8%
CC1(C)COC(/C=C/c2ccc([N+](=O)[O-])cc2)=N1,?,1%,0%,-41%,?,-3.0%,.,-32%
COc1cccc(CNc2ncnc3cc(OC)c(OC)cc23)c1,?,-6%,?,-3%,-12%,-6.3%,-1%,1%
Fc1ccc(C(NCCc2ccccc2)c2nnc(-c3ccccc3Cl)o2)cc1 (stereo not given),?,-3%,19%,.,-26%[46.1 µM],-6.8%,.,.
COCCCNCC(O)COc1ccccc1F (stereo not given),-2%,.,15%,0%,-23%,.,14%,.
COc1ccc(S(=O)(=O)Nc2ccc3c(c2)OCCO3)cc1OC,23%[46.1 µM],.,19%,5%,1%[46.1 µM],.,15%,3%
CN(C)c1ccc(/C=N/NC(=O)c2ccco2)cc1,?,-1%,-48%,-35%,?,-12%,-27%,-16%
CN(C#N)c1nc(Cl)nc(Nc2cccc(Cl)c2)n1,-11%,-15%,-22%,-13%,18%,-9.5%,-3%,-27%
COCn1c(-c2ccc(OC)cc2)nc2ccccc21,-17%[46.1 µM],-7%,32%[activator],-24%,-19%,-1.4%,-4%,-21%
N/C(=N\OC(=O)CCC1CCCCC1)c1cccc([N+](=O)[O-])c1,-1%,7%,58%[activator],-11%,13%,0.3%,-5%,-32%
O=C(CC1N=C2c3ccccc3N=C(SCC(=O)Nc3ccc(F)cc3)N2C1=O)NCc1ccc2c(c1)OCO2 (stereo not given),.,-3%,3%,.,-8%[46.1 µM],-2.7%,.,.
COc1ccc(CNC(=O)Nc2cccs2)cc1OC,18%,-3%,21%,5%,2%,-0.8%,3%,?
COc1ccc(-n2cnc(N)c2C(=O)c2cccc([N+](=O)[O-])c2)cc1,?,-12%,0%,-11%,-33%,-6.5%,-13%,-10%
Cc1c(Br)c([N+](=O)[O-])nn1CC(=O)NC1CCCCCC1,-23%[46.1 µM],.,-8%,1%,1%,.,21%,12%
O=C(Nc1cccc2c1CCCC2)c1ccccc1Br,0%,.,-15%,2%,?,.,2%,6%
COc1ccc(C(=O)Nc2ccc(C3=NNC(=O)CC3C)cc2NC(=O)c2ccc(OC)cc2)cc1 (stereo not given),?,.,0%,-1%,-9%[46.1 µM],.,-1%,.
O=C(/C=C/c1ccco1)Nc1nnc(-c2ccco2)s1,.,.,55%[activator],0%,.,.,8%,3%
CCC(C)(C)NC(=O)C(c1ccncc1)N(Cc1ccc(C)cc1)C(=O)c1csnn1 (stereo not given),-1%,5%,17%,7%,1%,-2.8%,8%,4%
Cc1nc2ccc(NC(=O)CCS(=O)(=O)c3ccccc3)cc2s1,?,-5%,44%[activator],-10%,22%,-13%,-8%,24%
O=C(CCC1N=C2c3ccccc3N=C(SCC(=O)Nc3cccc(Cl)c3)N2C1=O)NCc1ccco1 (stereo not given),0%[46.1 µM],25%,3%,.,13%[46.1 µM],-8.0%,.,.
CCC(C)NC(=O)c1c2c(nc3ccccc13)C(=O)N(C1CCCCC1)C2 (stereo not given),.,-1%,-10%,.,9%[46.1 µM],-0.7%,.,.
Cc1cccc(C)c1NC(=O)NC1(C(=O)NCc2ccncc2)CCCCC1,1%[46.1 µM],.,-6%,4%,17%,.,1%,7%
CCOc1cc(C2C(C(C)=O)=C(C)Nc3ncnn32)ccc1O (stereo not given),.,.,5%,2%,.,.,9%,1%
COc1ccc(S(=O)(=O)N2CCC(C(=O)NCc3ccncc3)CC2)cc1C,9%[46.1 µM],.,-8%,3%,1%[46.1 µM],.,-24%,3%
CC(=O)Nc1ccc(-c2cn3cc(C)ccc3n2)cc1,?,?,-17%,-17%,?,-6.3%,-7%,2%
Cc1cccc2[nH]c3c(N4CCN(C(=O)c5ccco5)CC4)ncnc3c12,-20%,1%,?,-6%,1%,-10%,4%,-13%
Cc1ccc(-n2nnc(-c3nsc(NC(=O)c4ccc(C)c(C)c4)n3)c2C)cc1,.,?,-7%,.,?,0.5%,.,.
O=C(Cn1c(=O)n(CC(=O)NCc2ccccc2)c2ccccc21)NCc1ccccc1,-27%,-23%,-1%,-1%,?,0.4%,34%,2%
NNC(=O)Nc1cccc(C(F)(F)F)c1,4%[46.1 µM],.,-10%,0%,-2%[46.1 µM],.,15%,6%
COCCn1c(CN2CCN(c3ccccc3)CC2)nc2c1c(=O)n(C)c(=O)n2C,-7%,.,?,.,-20%,.,12%,-6%
O=C(N/N=C/c1ccncc1)c1ccc(NC(=O)c2cccc(Cl)c2)cc1,2%[46.1 µM],.,22%,-3%,-1%[46.1 µM],.,1%,.
Cc1c(C(=O)OCC(=O)Nc2ccc(N3CCOCC3)cc2)oc2ccccc12,16%,.,-15%,6%,0%,.,-11%,.
CC(C)S(=O)(=O)c1oc(-c2ccc(F)cc2)nc1S(=O)(=O)c1ccccc1,?,-1%,16µM*,.,?,-6.7%,.,.
Cc1cccc(C)c1NC(=O)c1sc(-n2nc(C)c(Cc3ccccc3)c2C)nc1C,-8%[46.1 µM],-10%,-25%,.,-1%[46.1 µM],-0.1%,.,.
O=C(NCC1CCCO1)c1ccc(Cn2c(=S)[nH]c3ccccc3c2=O)cc1 (stereo not given),5%,.,26%,2%,1%,.,0%,.

(listing goes on)
mol,Marburg entry inh,Cruzain noTriton,StopGo reporter,SARS PLpro yeast,LASV entry inh,Cruzain Triton,RE007 growth inh,NS1 function inh
CC(=O)c1sc(NC(=O)c2c(-c3ccccc3)c(-c3ccccc3)nn(C)c2=O)nc1C,-18%[46.1 µM],?,-3%,.,-19%[46.1 µM],-7.2%,.,.
CCCCn1c(=O)n(CC(=O)Nc2ccc(C)c(Cl)c2)c(=O)c2c1ncn2Cc1ccco1,-10%,-26%,-18%,-5%,16%,-1.5%,-14%,-34%
Cc1cccc(Oc2coc3cc(O)ccc3c2=O)c1,.,.,71%[activator],-2%,.,.,16%,-5%
CC(=O)Nc1cc2c(c([N+](=O)[O-])c1C)C(C)(C)CC2(C)C,?,.,0%,.,-7%,.,-10%,.
CCOCCCn1c(=O)c2ccccc2n2c(=S)[nH]nc12,.,.,-7%,2%,.,.,1%,6%
Cc1onc(-c2c(F)cccc2Cl)c1C(=O)N1CCCCC1,.,.,-17%,9%,.,.,-3%,0%
COc1ccccc1N1CCN(C(=O)CSc2nnc(NC(=O)C(C)C)s2)CC1,1%,.,?,2%,-12%,.,14%,-3%
